Bioassay records from PubChem BioAssay.
PrP 5UTR inh: inhibition of PrP 5' UTR reporter expression | cell-based PrP 5' UTR mRNA reporter, plate reader | inhibition, % (no concentration beside the values) | 0.35% of 340,000 active;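 active means every replicate at 50% or more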;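 further: 0 = median of the neutral control wells; tested in H4 reporter cells; numbers are from one replicate; inactives centre near -14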
Bead autofluor: flagged as autofluorescent in microsphere protease counterscreen; 3.1% of 360,000 active; compound autofluorescence counterscreen, microsphere flow cytometry; active compounds read high; AID 624483; fluorescence intensity (no concentration beside the values);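 active means at least 3 SD above the mean of all compounds, about 16000 in these data; inconclusive means too few beads counted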;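 further: 100 nL of 1 mM stock went into each well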
Sa RN4220 lethal: growth inhibition of S. aureus RN4220, primary screen, OD600. 16 h. 0.33% of 330,000 active. inhibition, % (test concentration not listed);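 active means z-score of -3 or lower and OD600 up to 0.18 on both plates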;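 further: plate controls were untreated cells for no effect and reference antibiotic for full effect; stock transfer was 100 nL into about 80 µL; one replicate is shown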
Sa ugtP lethal: growth inhibition of ugtP-null S. aureus, primary screen, RN4220 ugtP deletion, OD600 | growth inhibition, % (concentration not given with the values) | 0.54% of 330,000 active | AID 1259309, 2017 | 16 h; some inactives read as strong as hits;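 active means z-score under -3 and OD600 up to 0.15 on both plates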;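 further: plate controls were untreated wells for no effect and antibiotic for full effect; wells of about 80 µL received 100 nL stock; the first replicate is given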
BJeLR viability: MLPCN primary cell-based screen for lethality selective to Ras in HRASV12 cells. BJeLR (HRASV12) viability, CellTiter-Glo ATP luminescence, 48 h; reference of the scale not given here. inhibition, % (no concentration beside the values). 0.17% of 300,000 active. AID 1554, 2009;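 active means replicate mean above 50%; inconclusive means above 50% but judged a plate artefact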;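 further: 50 nL library stock added to about 25 µL; numbers are from one replicate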
Mtb hypoxia rep: PubChem AID 1159583; M. tuberculosis hypoxia-regulated fluorescent reporter, fluorescence; fluorescence inhibition, % (test concentration not listed); 0.1% of 300,000 active;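 active means 35 to 45% if threefold the growth effect, above 45% if 1.5-fold the growth effect; inactive means the rest, general growth blockers included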;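 further: wells of about 50 µL received 100 nL stock; 0% = vehicle wells and 100% = reference inhibitor wells; whole bacteria with a GFP reporter of the hypoxia response; strong numbers were not always called active; many hits fall short of the cut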
Mtb hypoxia rep growth: recorded beside Mtb hypoxia rep, whose call it bears; growth inhibition, %; measured here: M. tuberculosis growth (absorbance);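 0% = vehicle and 100% = reference antibiotic; read after six days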
An asterisk follows results filed as active; ? = inconclusive; nt = not tested or not shown.

SMILES	PrP 5UTR inh	Bead autofluor	Sa RN4220 lethal	Sa ugtP lethal	BJeLR viability	Mtb hypoxia rep	Mtb hypoxia rep growth
O=C(NCc1ccco1)C1CCN(S(=O)(=O)c2cccc([N+](=O)[O-])c2)CC1	-11	3615	-0.1	1	8	3	-2
COc1ccc(/C=C/C(=O)N2CCN(S(=O)(=O)/C=C/c3ccccc3)CC2)cc1OC	-8	2192	1.6	15	9	7	7
Cc1oc(-c2cccc(Cl)c2)nc1CN1CCC(C(=O)NCCCN2CC(C)CC(C)C2)CC1 (configuration not stated)	-9	7232	2.2	-2	2	5	1
COc1ccc2cc(Br)ccc2c1CC(=O)NCC1CCCO1 (configuration not stated)	-9	4489	3.1	2	7	13	8
O=S1(=O)CCOC2Cc3ccccc3C2N1Cc1cccc(C(F)(F)F)c1 (configuration not stated)	nt	nt	9.8	-1	nt	11	7
COc1cccc(C=NNC(=O)CC(=O)NCCc2ccc(OC)c(OC)c2)c1	nt	nt	1.4	0	nt	5	8
CCCOc1c(OC)cccc1C1CC(=O)Nc2cc3c(cc21)OCCO3 (configuration not stated)	-21	4840	-1.0	-7	-7	nt	nt
CCOC(=O)c1sc2nc(C(C)C)c3c(c2c1N)CCC3	-10	2524	0.9	15	-8	5	1
Cc1ccc(C)c(CN2CCC(CNC(=O)Nc3ccc(F)c(Cl)c3)CC2)c1	-20	3553	-8.4	-2	4	-7	-6
COc1ccc(-c2ccc(C=NNC(=O)c3cccnc3)o2)c([N+](=O)[O-])c1	nt	nt	5.8	4	nt	3	10
COC(=O)c1c(C)c(C)nc(N)c1C#N	-15	5729	2.1	-3	-3	nt	nt
CC(=O)N(Cc1ccc(Cl)cc1)c1cnccn1	-10	3304	-1.2	5	-12	1	-1
O=C(CCCCC(=O)Nc1ccccc1)Nc1ccccc1	-21	4296	5.2	7	12	-3	6
CCCNC(=O)N1CCC(C(=O)c2ccc(F)cc2)CC1	-11	9473	-0.2	0	1	2	-2
CN(Cc1ccccc1)C(=O)COC(=O)c1cc(Cl)nc(Cl)c1	-28	4382	3.3	18	-13	13	5
Cc1cc(SCC(=O)Nc2ccccc2C)nc(C)n1	-2	15841	5.6	11	-3	8	14
O=[N+]([O-])c1cccc(S(=O)(=O)NCCCN2CCOCC2)c1	0	2156	5.2	3	-2	0	0
O=C(NCCS(=O)(=O)N1CCc2ccccc2C1)c1ccccc1	-17	?	2.6	1	4	2	5
O=C(Nc1ccccn1)C1CCN(S(=O)(=O)c2ccc3c(c2)OCCO3)CC1	-37	4091	1.1	0	nt	-2	0
COc1cc(/C=C(\C#N)C(=O)N2CCOCC2)cc(Br)c1O	-25	3057	2.0	3	-3	-13	-14
Cc1ccc(-n2c3c(c(=O)[nH]c2=O)C(NS(=O)(=O)c2ccc(C)cc2)(C(F)(F)F)C(=O)N3)cc1 (configuration not stated)	-31	11450	2.7	-4	4	11	7
COc1cc(OC)cc(C(=O)Nc2ccc(-c3nc4ccccc4o3)cc2)c1	-22	2274	0.0	6	-11	nt	nt
CC(=O)C(=NNc1ccccc1)Sc1nnc(CCc2ccccc2)n1-c1ccccc1	nt	nt	5.6	4	nt	-3	4
CC(Oc1ccccc1F)C(=O)NN (configuration not stated)	-6	2468	-1.1	-4	-6	-4	1
Cn1c(=O)n(C)c2cc(S(=O)(=O)Nc3ccc(F)cc3)ccc21	-21	3587	3.6	3	-3	2	-5
CCN(C(=O)C1CCCO1)c1ccccc1 (configuration not stated)	-18	3571	2.8	4	-4	1	10
Cc1ccc(-n2nc3ccc(N)cc3n2)cc1Cl	-31	3132	3.5	-2	-7	2	-3
Cc1nnc(NC(=O)CSc2nc(C3CCCCC3)nc3ccccc23)s1	-19	10523	7.4	-4	-4	15	4
Cc1cc(C)c2c(=O)[nH]c(SCC(=O)c3ccc(C)c(C)c3)nc2n1	-5	2553	21	-7	0	1	2
Cc1cccc(C(=O)Nc2ccc(Cl)cc2C(=O)c2ccccc2)c1	1	20672*	-3.6	39	-1	8	7
Cc1cc(C)n2ncc(/C(N)=N/OC(=O)c3ccccc3F)c2n1	-88	5104	3.9	-3	-8	-15	5
CCOC(=O)Nc1ccc2c(c1)OCO2	-49	3960	8.1	0	-9	3	-5
Cc1ccc(C(=O)NNC(=O)c2ccco2)cc1	-27	2161	5.6	7	-8	-2	2
CCOC(=O)c1ccc(NC(=S)NC(=O)c2cncc(Br)c2)cc1	-21	3320	2.8	24	-3	nt	nt
COc1ccc(NC(=O)c2cccc(NS(=O)(=O)c3ccccc3)c2)cc1	-1	4036	3.0	5	4	5	7
CC(=NNC(=O)c1cc(C)oc1C)c1ccc2ccccc2c1	nt	nt	3.4	3	nt	9	0
c1ccc(-c2noc(CN3CCc4sccc4C3)n2)cc1	-7	6538	16	-2	-1	4	-4
C[C@H](CO)N1C[C@H](C)[C@@H](CN(C)Cc2ccncc2)Oc2c(NS(=O)(=O)c3ccc(F)cc3)cccc2C1=O	-14	3635	3.0	1	nt	3	14
COc1ccc(C(CNC(=O)c2ccc(S(=O)(=O)N(C)C)cc2)N2CCCCC2)cc1 (configuration not stated)	-13	3540	3.1	8	-1	11	5
Cc1cnn(C(=O)Cn2nc(C(F)F)c(Br)c2C)c1	-29	5898	2.9	3	nt	10	-4
CC/C(=N/Nc1cccc(C)c1)c1cnnc(SC)n1	-15	2024	nt	nt	-6	nt	nt
COc1ccc(NC(=O)CCc2nnc3ccc(N4CCN(c5cccc(OC)c5)CC4)nn23)cc1	5	5813	0.7	6	2	1	10
CCn1c(=O)cc(OCC(=O)NCCCN2CCC(C)CC2)c2ccccc21	-39	6333	3.7	11	-3	4	-9
Cc1ccc(NC(=O)C2CCCO2)c(Br)c1 (configuration not stated)	-21	6452	0.9	3	0	2	-9
Cc1ccccc1C(=O)NCC(=O)OCCOc1ccc(C(C)C)c(C)c1	-11	nt	6.8	19	0	6	-4
CC(=O)NCc1ccc(-c2csc(NC(=O)CCc3nc4ccccc4c(=O)[nH]3)n2)s1	-3	2945	2.6	-1	nt	6	4
CCOc1ccc2oc(-c3ccccc3)c(C(=O)N3CCN(C)CC3)c2c1	-24	22066*	-1.0	-23	-1	3	-7
COc1ccc(Br)cc1C(=O)NN=Cc1cccnc1	nt	nt	0.2	6	nt	17	4
Cc1csc(NC(=O)c2ccc(Cl)nc2)n1	-27	3865	2.8	-7	9	-14	-13
C=CCC1c2cccc(C(=O)O)c2C(=O)N1c1ccc(F)cc1 (configuration not stated)	-4	7814	4.1	-1	-8	5	5

Continued.
SMILES	PrP 5UTR inh	Bead autofluor	Sa RN4220 lethal	Sa ugtP lethal	BJeLR viability	Mtb hypoxia rep	Mtb hypoxia rep growth
COc1ccc(C(=O)CCC(=O)O)cc1	-18	3914	0.0	5	-2	nt	nt
Fc1ccccc1N1CCN(C2CCCN(Cc3ccccc3C(F)(F)F)C2)CC1 (configuration not stated)	-51	4202	3.7	22	4	13	1
COc1ccc(C(=O)c2c[nH]c(C(=O)NCc3ccco3)c2)cc1	-8	4869	3.3	11	3	nt	nt
COc1ccc2[nH]cc(CCNC(=O)c3ccccc3Cl)c2c1	-6	4011	3.6	5	-1	13	8
C[C@@]12C(=O)N(CCc3c[nH]c4ccccc34)CC(=O)N1C1c3ccccc3OCC1C2c1ccccc1 (some centres not stated)	nt	nt	4.2	-27	nt	-2	10
COc1ccc(-c2[nH]ncc2-c2cscn2)c(O)c1	-35	4199	5.0	-2	3	12	8
C=CCn1c(-c2cccn(Cc3ccc(Cl)cc3Cl)c2=O)n[nH]c1=S	-16	4128	5.4	-1	2	-4	5
C=CCNC(=O)CSc1nc2cc(C(=O)OCC)ccc2n1CC	nt	9237	1.1	-3	-16	6	0
Cc1ccc(NC(=O)CCS(=O)(=O)c2ccccc2)cc1S(=O)(=O)N1CCCCCC1	-21	4961	4.2	0	nt	-9	0
Cc1ccc(NC(=S)N(Cc2ccccc2)Cc2cccs2)c(C)c1	-6	4102	0.3	7	-2	6	5
COc1ccc(NC(=O)c2c(Nc3ccccc3)sc(C(=O)c3ccc(F)cc3)c2N)cc1	-12	8789	4.6	-4	10	7	2
CCCCN(CC)CCNc1c(NC2CCN(C(=O)OCC)CC2)c(=O)c1=O	-31	5295	3.2	11	-5	7	3
Cc1cccc(OCCC(=O)Nc2ccccc2C(N)=O)c1	-23	6099	3.6	8	-2	4	2
CCCCCCCCCCCC(=O)N1CC(=O)NC(=O)C1	-12	4487	0.2	22	3	5	10
CCSc1ccccc1C(=O)Nc1nncs1	-10	3808	-2.1	2	1	3	7
Cc1ccccc1OCC(O)Cn1c(NCc2ccco2)nc2c1c(=O)n(C)c(=O)n2C (configuration not stated)	-12	11400	-0.7	-5	-2	0	1
O=[N+]([O-])c1cc([N+](=O)[O-])c(Oc2ccc(F)cc2F)cc1NN1CCCCC1	6	2824	16	15	4	4	-1
c1ccc2c(CNC3CCCCC3)c[nH]c2c1	nt	nt	-2.3	-5	5	7	11
CCOc1ccc(C2C(C#N)=C(C)NC3=C2C(=O)c2ccccc23)cc1 (configuration not stated)	-4	22424*	2.8	2	-1	2	7
Cc1onc(-c2ccccc2)c1C(=O)NCCc1ccc(S(N)(=O)=O)cc1	-1	4022	1.8	4	-3	5	5
O=C1c2cnccc2CN1Cc1ccccc1	-21	4374	3.2	-1	3	13	12
O=C(O)c1ccccc1CSc1ccccn1	-20	2200	6.5	3	-1	7	-7
CCN(CC)CC(=O)Nc1ccc(-c2ccc(NC(=O)CN(CC)CC)c(OC)c2)cc1OC	-15	3988	7.7	7	2	21	7
CCCCN1C(=N)N(C(C)CN2CCCC2CN2C(N)=NCC2CC(C)C)CC1C(C)CC (configuration not stated)	nt	nt	5.3	6	nt	4	6
CN(C)/C=N/C(=S)Nc1cc(Cl)cc(Cl)c1	-54	5000	nt	nt	-2	nt	nt
CCOC(=O)N1CCN=C1SCc1ccc(Cl)c(Cl)c1	-7	4642	-0.2	-5	15	-3	2
CCC(Oc1ccccc1)C(=O)Nc1ccc(S(=O)(=O)NCC2CCCO2)cc1 (configuration not stated)	-26	20336*	1.8	2	4	0	7
O=C(COC(=O)c1ccc([N+](=O)[O-])s1)NC(=O)NCc1ccccc1	-12	1939	18	23	-3	10	0
CCOC(=O)CN(C)C(=O)C1CCCN1C(=O)OC(C)(C)C (configuration not stated)	-36	3494	-0.4	-6	-1	-1	6
Oc1ccc(/C=N/Nc2ccnc3cc(Cl)ccc23)cc1O	-45	2818	nt	nt	-7	nt	nt

An excerpt from above with just Mtb hypoxia rep and PrP 5UTR inh:
| SMILES | Mtb hypoxia rep | PrP 5UTR inh |
| --- | --- | --- |
| Cc1ccccc1C(=O)NCC(=O)OCCOc1ccc(C(C)C)c(C)c1 | 6 | -11 |
| CCOC(=O)c1sc2nc(C(C)C)c3c(c2c1N)CCC3 | 5 | -10 |
| COc1ccc(Br)cc1C(=O)NN=Cc1cccnc1 | 17 | nt |
| CC(=O)N(Cc1ccc(Cl)cc1)c1cnccn1 | 1 | -10 |
| COc1ccc(NC(=O)CCc2nnc3ccc(N4CCN(c5cccc(OC)c5)CC4)nn23)cc1 | 1 | 5 |

(cont.)
SMILES	PrP 5UTR inh	Bead autofluor	Sa RN4220 lethal	Sa ugtP lethal	BJeLR viability	Mtb hypoxia rep	Mtb hypoxia rep growth
CCOC(=O)C1=C(O)/C(=C/c2ccc(OCC(=O)Nc3ccc(C)cc3)cc2)N=C1C	-33	5808	3.9	11	2	4	4
CCN(CC)C(=O)CN1C(=O)C2(NC(=O)c3ccccc3N2)c2ccccc21 (configuration not stated)	-20	6249	5.6	6	-5	nt	nt
CC(=NOCC(=O)Nn1c(C)nc2ccccc2c1=O)c1ccccc1	nt	nt	6.5	-3	nt	10	1
CC(OC(=O)CSc1ccc([N+](=O)[O-])cc1)C(=O)NC1CC1 (configuration not stated)	-18	2840	1.7	9	nt	10	-5
O=C(NCc1ccncc1)C(=O)NC1CC1	-17	4431	-1.2	5	-12	3	4
O=C(C1Cc2ccccc2O1)N1CCCCC1 (configuration not stated)	-40	10312	2.5	-3	-9	17	17
NC(=O)C1(N2CCCCC2)CCN(C(=O)c2ccc(C#Cc3ccccc3)o2)CC1	-16	5250	1.7	13	0	nt	nt
COc1ccc(CNS(=O)(=O)c2ccc3c(c2)N(C)CCO3)cc1	-33	6141	2.8	6	4	8	-2
